Source: PubChem BioAssay (ICCB-Longwood Screening Facility, Harvard Medical School)
HCMV NEC inh – disrupts HCMV UL50-UL53 complex binding; inhibition, % (test concentration not listed); 190,000 compounds, 0.15% hits; HTRF UL50-UL53 interaction, normalized percent inhibition;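 active = both replicates at 50% or more, plus weaker picks with an unusually low signal ratio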;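 note: stock transfer was 100 nL into about 20 µL; 0% = negative control wells and 100% = wells with untagged competitor protein; inactives centre near -12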
GIV-Gai inh – inhibitors of GIV GBA-motif binding to rat Galpha-i3; Galpha-i3/FITC-GIV peptide fluorescence polarization, 90 min; hits give low values; scaled: aluminum fluoride 0%, vehicle 100%; P08753; percent of control (FP), % (concentration not given with the values); 210,000 compounds, 0.42% hits;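 active = replicate mean at 85% of control or lower, very high polarization wells dropped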;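 note: wells of about 15 µL received 100 nL stock; the first replicate is given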
Target sequence (P08753 whole entry, looked up): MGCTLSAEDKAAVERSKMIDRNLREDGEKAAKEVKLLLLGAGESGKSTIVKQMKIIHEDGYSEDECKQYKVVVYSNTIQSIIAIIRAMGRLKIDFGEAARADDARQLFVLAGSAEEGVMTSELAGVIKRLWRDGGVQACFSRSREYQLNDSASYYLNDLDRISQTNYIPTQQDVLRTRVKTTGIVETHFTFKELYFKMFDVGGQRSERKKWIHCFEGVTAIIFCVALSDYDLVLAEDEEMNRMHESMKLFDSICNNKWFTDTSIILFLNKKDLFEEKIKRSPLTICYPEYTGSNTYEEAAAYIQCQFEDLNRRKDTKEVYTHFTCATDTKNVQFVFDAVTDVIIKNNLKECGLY
Sa growth 42C – S. aureus growth inhibition | 170,000 compounds, 0.53% hits | S. aureus RN4220 growth, OD600, 20 h, 42 °C; hits give low values | relative growth, % (test concentration not listed) | AID 720641;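 active = growth at 42 °C up to 50% and 20 or more points under that at 30 °C, or under 10% at both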;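 note: 300 nL library stock went into each well; scaled to the means of positive and negative controls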
Sa growth 42C second temp – recorded beside Sa growth 42C, whose call it bears; relative growth, %; measured here: growth at 30 °C;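 optical density after 20 h as mean of two plates; 100% = untreated growth and lower means inhibition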
The depositor's hits bear a star; . = no result given; & = joins results of further samples. Outcome played no part in choosing rows, and some 0.83% of all compounds hit somewhere here.

SMILES	HCMV NEC inh	GIV-Gai inh	Sa growth 42C	Sa growth 42C second temp
CN1CN2C(=O)N3CN(C)CN4C(=O)N(C1)C2C34 (configuration not stated)	-13	97	95	76
Cc1nc2ccc(NC(=O)NC(=O)c3ccccc3Cl)cc2o1	-34	106	85	80
O=C(Nc1ccc2c(c1)C(=O)NC2=O)C1=COCCO1	-58	97	95	91
O=C(NC(=O)N(Cc1ccccc1)C1CC2CCC1C2)c1c(Cl)cccc1Cl (configuration not stated)	-17	100	105	83
Cc1ccc(NC(=O)c2cc(-c3cccs3)nc3ccccc23)nc1	-20	.	101	89
C/C(=N\NC(=O)COc1cccc(Br)c1)c1ccco1	-30	.	97	100
O=C(NCCc1ccccc1)c1c[nH]c2ccc(S(=O)(=O)Nc3ccc(F)cc3F)cc2c1=O	.	103	133	93
CCOc1ccccc1C(=O)Nc1ccc(S(=O)(=O)Nc2onc(C)c2C)cc1	-10	101	83	88
N#Cc1c(/N=c2\oc3ccc(Br)cc3cc2C(N)=O)sc2c1CCCC2	-12	107	.	.
CCc1noc2nc(C)nc(N3CCCC(C(=O)NC4CC4)C3)c12 (configuration not stated)	0	100	.	.
CCn1cc(C(C)NC(=O)c2cc(-c3cccc(C)c3)nc3ccccc23)c(C)n1 (configuration not stated)	-34	102	.	.
N#Cc1ccccc1OCC(=O)N1CCC(Cc2ccccc2)CC1	-14	.	107	91
COc1ccc(N2CC(c3nc4ccccc4n3CC(O)COc3ccccc3)CC2=O)cc1 (configuration not stated)	-6	110	.	.
CC(C)CCn1c(COc2ccccc2)nn(CCC#N)c1=S	-13	.	96	95
COc1cccc(-c2noc(N3CCCC3)n2)c1	14	104	.	.
COc1ccc(NC(=O)c2sc3nc4c(cc3c2N)CN(Cc2ccccc2)CC4)c(OC)c1	-47	101	106	83
N#Cc1ccc(OCC(=O)NCCOc2ccccc2F)cc1	-2	.	89	93
CCOc1ccc(NC(=O)c2ccnc(N3CCC(C(=O)Nc4ccc(F)cc4)CC3)c2)cc1	-20	101	.	.
C(=C\CN1CCCCC1)/CN1CCCCC1	-1	111	99	99
CCC(C(=O)Nc1cc(Cl)ccc1OC)n1nc(-c2ccccc2)ccc1=O (configuration not stated)	-6	99	94	64
Cc1cc(OCC(=O)N2C(C)CCCC2C)ccc1Cl (configuration not stated)	-11	.	110	95
CCOCCc1nn2c(=O)cc(COC(=O)c3ccc(NC(=O)c4ccc(F)cc4)cc3)nc2s1	.	104	92	92
Cc1nn(CC(=O)C23CC4CC(CC(C4)C2)C3)c(=O)c(C#N)c1C	-49	.	86	86
O=C(Cn1c(=O)oc2cc(Cl)ccc21)Nc1cccc(C(F)(F)F)c1	.	103	125	88
O=c1[nH]c(SCc2nc3ccccc3[nH]2)nc2nc[nH]c12	-18	128	.	.
SMILES	HCMV NEC inh	GIV-Gai inh	Sa growth 42C	Sa growth 42C second temp
N#C/C(=C\c1ccc(O)c(O)c1)C(=O)NCCCNC(=O)/C(C#N)=C/c1ccc(O)c(O)c1	-88	116	.	.
Cc1ccccc1OCC(=O)Nc1cc2c(cc1SC(C)C)n(C)c(=O)n2C	-30	99	.	.
CC(C(=O)Nc1ccc(S(N)(=O)=O)cc1)N(C)CC1COc2ccccc2O1 (configuration not stated)	-1	.	101	95
C=CCNc1nc(C(=O)OCC(=O)N2CCCC2=O)cs1	-13	.	87	86
O=C1C2ON(c3ccccc3)C(c3ccncc3)C2C(=O)N1c1cccc(Br)c1 (configuration not stated)	-17	100	93	88
COc1ccc(-c2noc(-c3cn(Cc4ccc(NC(=O)Cc5ccccc5)cc4)cn3)n2)cc1OC	-28	106	.	.
COc1cc2c(cc1OC)C(COc1ccccc1OC)N(C(=O)COc1ccc(Cl)cc1)CC2 (configuration not stated)	.	100	107	89
Cc1ccc(SCCC(=O)N2CCC(C(N)=O)CC2)cc1	-3	.	95	86
C/C=C/C(=O)Nc1ccc(NC(C)=O)cc1	1	98	101	105
CCCCN(CC)C(=O)c1ccc2c(=O)n(CC(C)C)c(=S)[nH]c2c1	-19	.	99	90
N#Cc1cc(-c2nc(-c3ccccc3)cs2)c(N)nc1SCC(=O)c1ccc[nH]1	-21	.	92	90
NC(=O)C1CCN(C(=O)CN2C(=O)C3CCCCN3c3ccc(C(=O)N4CCCC4)cc32)CC1 (configuration not stated)	-34	102	.	.
CC1Cc2cc(S(=O)(=O)NCCc3ccccc3)ccc2N1C(=O)C1CCC1 (configuration not stated)	.	105	99	118
O=C(Nc1ccc(F)cc1F)c1ccc(-c2ccccc2)s1	-6	102	105	90
O=C(NC1=NCCS1)c1ccc2c(c1)OCO2	0	102	104	91
COc1ccc(C/C(C)=N/Nc2nc(C)cc(=O)[nH]2)cc1	-10	.	102	90
COCCNC(=O)c1cn(C(C)c2ccccc2)nn1 (configuration not stated)	12	100	112	76
Cc1cc(C(=O)CN2CCN(c3cccc(Cl)c3)CC2)c(C)n1-c1ccc(S(N)(=O)=O)cc1	-20	.	63	17
O=c1cc(-c2ccccc2)nc(SCc2nc(-c3ccc(C(F)(F)F)cc3)no2)[nH]1	18	102	98	104
Cc1cccc(Nc2nc(O)c(C3=c4cc(Br)ccc4=NC3=O)s2)c1C	-16&-7	109&104	.	.
COc1ccc2nc(NC(=O)Nc3ccc(C)cc3Cl)sc2c1	-31	100	.	.
CC(=O)N(c1ccc(C)c(C)c1)c1nc(CSc2nnnn2C2CCCC2)cs1	-15	.	108	88
COC(=O)COc1c(C)cc(Br)cc1Br	6	.	119	110
CNC(=O)n1cc(C)c(-c2ccccc2)n1	-20	104	94	87
CNC(=O)NC(=O)C(C)Sc1nncn1-c1ccccc1 (configuration not stated)	2	.	118	99
SMILES	HCMV NEC inh	GIV-Gai inh	Sa growth 42C	Sa growth 42C second temp
Cc1ccc(Cn2c(C)c3cnn(CC(=O)O)c(=O)c3c2C)cc1	-41	103	94	81
O=C1c2cccc3cccc(c23)C(=O)N1c1ccccc1	-95	.	102	90
CCOC(=O)c1ccc(-c2ccc(/C=C(\C#N)C(=O)NCc3cccs3)o2)cc1	-28	104	83	76
CCN(CC)Cc1c(O)ccc2c1O/C(=C\c1ccccc1Cl)C2=O	-47	226	91	73
COc1ccccc1NC(=O)CSC1=Nc2ccccc2C2=NC(CC(=O)NCCc3ccccc3)C(=O)N12 (configuration not stated)	.	99	81	74
CCN1CCc2nc3sc(C(=O)Nc4ccccc4OC(F)(F)F)c(N)c3cc2C1	-65	149	106	98
CC(C)N(CCc1ccncc1)C(=S)NCc1ccccc1	.	102	129	88
CCCSc1ncc(Cl)c(C(=O)Nc2sc3c(c2C(=O)OC)CCCC3)n1	-9	106	98	91
O=c1oc2ccccc2n1Cc1ccc(Cl)cc1	-12	.	91	85
S=c1oc(Cc2ccccc2)nn1CN1CCOCC1	-2	.	94	98
Cc1ccc(-n2nc(C)c3c(C)cc(=O)n(CC(=O)Nc4ccc(Br)cc4F)c32)cc1	.	99	101	100
CCOc1ccc2oc(C)c(C(=O)Nc3ccc(C)cc3C)c2c1	-7	102	.	.
COc1ccc(-c2noc(-c3cccnc3NCC3CCCO3)n2)cc1 (configuration not stated)	-19	97	.	.
OC(CN1CCN(c2ccc(C(F)(F)F)cn2)CC1)c1ccc2c(c1)OCCO2 (configuration not stated)	-13	104	100	91
COC(=O)c1[nH]nc2c1C(=O)N(Cc1ccccc1)C2=O	.	101	82	54
CC(SCc1ccc(Br)cc1)C(=O)O (configuration not stated)	-24	.	103	101
CCOC(=O)c1ccc(NC(=O)c2sc(NC(=O)c3ccc(F)cc3)c(C(=O)OCC)c2C)cc1	-26	97	.	.
Cc1nc2ccccc2nc1OCC(=O)N1CCN(c2ccccc2)CC1	-56	.	93	91
O=S(=O)(CCO)c1ccc(C(F)(F)F)cn1	-11	99	97	96
Cc1cccc(C)c1NC(=O)CSc1nnc(C)n1Cc1ccccc1	-8	95	73	99
Fc1ccc(-c2nc3n(n2)Cc2ccccc2-3)cc1	-17	106	100	96
CCOc1ccc(-c2nnc(SCC(=O)NCc3ccccc3Cl)o2)cc1	-8	95	105	94
Cc1ccc(CNC(=O)c2ccccc2NC(=O)C(F)(F)F)cc1	-18	95	.	.
O=C(Nc1ccc(F)cc1Cl)n1ncc2cc(Cl)ccc21	-2	99	47	28
CC(=O)N(Cc1ccccc1)c1nc2ccccc2n(CC(=O)Nc2cc(C)ccc2C)c1=O	10	105	.	.

Given in CSV form: entries from further up.
canonical_smiles,HCMV NEC inh,GIV-Gai inh,Sa growth 42C,Sa growth 42C second temp
Cc1ccc(Cn2c(C)c3cnn(CC(=O)O)c(=O)c3c2C)cc1,-41,103,94,81
O=C1c2cccc3cccc(c23)C(=O)N1c1ccccc1,-95,.,102,90
CCOC(=O)c1ccc(-c2ccc(/C=C(\C#N)C(=O)NCc3cccs3)o2)cc1,-28,104,83,76
CCN(CC)Cc1c(O)ccc2c1O/C(=C\c1ccccc1Cl)C2=O,-47,226,91,73
COc1ccccc1NC(=O)CSC1=Nc2ccccc2C2=NC(CC(=O)NCCc3ccccc3)C(=O)N12 (configuration not stated),.,99,81,74
CCN1CCc2nc3sc(C(=O)Nc4ccccc4OC(F)(F)F)c(N)c3cc2C1,-65,149,106,98
CC(C)N(CCc1ccncc1)C(=S)NCc1ccccc1,.,102,129,88
CCCSc1ncc(Cl)c(C(=O)Nc2sc3c(c2C(=O)OC)CCCC3)n1,-9,106,98,91
O=c1oc2ccccc2n1Cc1ccc(Cl)cc1,-12,.,91,85
S=c1oc(Cc2ccccc2)nn1CN1CCOCC1,-2,.,94,98
Cc1ccc(-n2nc(C)c3c(C)cc(=O)n(CC(=O)Nc4ccc(Br)cc4F)c32)cc1,.,99,101,100
CCOc1ccc2oc(C)c(C(=O)Nc3ccc(C)cc3C)c2c1,-7,102,.,.
COc1ccc(-c2noc(-c3cccnc3NCC3CCCO3)n2)cc1 (configuration not stated),-19,97,.,.
OC(CN1CCN(c2ccc(C(F)(F)F)cn2)CC1)c1ccc2c(c1)OCCO2 (configuration not stated),-13,104,100,91
COC(=O)c1[nH]nc2c1C(=O)N(Cc1ccccc1)C2=O,.,101,82,54
CC(SCc1ccc(Br)cc1)C(=O)O (configuration not stated),-24,.,103,101
CCOC(=O)c1ccc(NC(=O)c2sc(NC(=O)c3ccc(F)cc3)c(C(=O)OCC)c2C)cc1,-26,97,.,.
Cc1nc2ccccc2nc1OCC(=O)N1CCN(c2ccccc2)CC1,-56,.,93,91
O=S(=O)(CCO)c1ccc(C(F)(F)F)cn1,-11,99,97,96

The list goes on:
SMILES	HCMV NEC inh	GIV-Gai inh	Sa growth 42C	Sa growth 42C second temp
CC(C)C(C(=O)Nc1ccc(F)c(Cl)c1)N1Cc2ccccc2C1=O (configuration not stated)	6	103	.	.
COc1ccc(Cn2c(=O)c3ccccc3n3c(-c4cccc(OC)c4OC)nnc23)cc1	-18	100	113	91
CN(C)S(=O)(=O)c1ccc(S(=O)(=O)N(CC(=O)Nc2ccccc2)C2CC2)cc1	16	102	98	112
CCc1ccc(NCc2nnc(-c3ccccc3)o2)cc1	2	104	116	95
Cc1cc(C)n(C2=NCCN2S(C)(=O)=O)n1	-7	100	77	89
CNC(=O)NC(=O)C(C)Sc1nc2ccccc2s1 (configuration not stated)	-19	.	87	92
CCN(CC(=O)NC1CCS(=O)(=O)C1)C(=O)c1ccccc1-c1ccccc1 (configuration not stated)	-12	.	99	90
O=C(Nc1ccccc1)N1CCN(c2nc(-c3ccccc3)ns2)CC1	-50&-13	106	87	82
CCOC(=O)N1CCC(NC(=O)Cn2nc(CC)n3c(cc4sc(CC)cc43)c2=O)CC1	.	100	111	94
CS(=O)(=NS(=O)(=O)c1ccccc1)c1ccccc1 (configuration not stated)	-2	97	106	96
Cn1c(=N)n(CCCOc2ccc(F)cc2)c2ccccc21	.	100	110	83
CCOC(=O)c1c(C)n(-c2ccccc2)c2ccc(OC(=O)c3ccc(S(=O)(=O)N(CC)CC)cc3)cc12	-11	109	.	.
COC(=O)C12CC3CC(CC(C(=O)OC)(C1)C3=O)C2=O	9	97	118	108
O=C(NCCc1ccccc1)c1ccc(CS(=O)(=O)Cc2ccccc2Cl)o1	.	99	101	85
CC1CCCC(C)N1Cn1nc2sc3ccccc3n2c1=S (configuration not stated)	-31	.	47	46
O=C(O)c1sc2ccccc2c1Nc1ccccc1	.	96	97	74
Cc1nc(=O)cc(-c2ccccc2)n1-c1ccccc1	-24	.	114	84
Cc1sc2ncnc(OCC(=O)N3CCN(S(=O)(=O)c4ccc(Cl)cc4)CC3)c2c1C	0	.	106	99
Cc1cc2oc(=O)c(CC(=O)O)c(C)c2c2occ(-c3ccccc3)c12	-44	100	90	76
CCN(CC)CCOc1ccc(Nc2ncc3cc(-c4c(Cl)cccc4Cl)c(=O)n(C)c3n2)cc1	-5	101	.	.
CCCC(=O)Nc1nnc(SCc2cc(=O)c3cc(C)ccc3[nH]2)s1	.	102	102	88
